PINK1 modulator: PINK1 expression modulation; PINK1 immunofluorescence, high-content cytometry, 24 h; Potency, µM (titrated, usually from 76.6 µM), without a hit: at the highest dose activation (PINK1 increase), usual class: activators; 410,000 compounds, 0.2% hits; active = well fitted activation curve with a large enough effect; inconclusive = small, poorly fitted or top-dose-only effect; inactive = flat fitted curve, though single readings scatter; cell line not stated here;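 also: potency is read from the fitted curve at half-maximal effect; % of control where 0% means no effect; nearly all actives have a fitted effect of over 65% in size; a mitochondrial uncoupler was the plate control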
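PINK1 protein level read as immunofluorescence by microplate cytometer in a fixed, stained stable cell line after 24 h exposure to five compound concentrations, with CCCP as control.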
TRPML1 ag: agonists of human TRPML1 channel | TRPML1-expressing cells, Ca2+ dye fluorescence, FDSS; host cell line not named in the record; reference of the full effect not given here | activation, % (concentration not given with the values) | 410,000 compounds, 0.12% hits | AID 624414; in the data active = activation above about 50%; inconclusive = about 30% to 50%; inactive = below about 30%; also: 0% is about no effect; the text of the record puts the active cut at 80%
Target sequence (Q9GZU1 whole entry, looked up): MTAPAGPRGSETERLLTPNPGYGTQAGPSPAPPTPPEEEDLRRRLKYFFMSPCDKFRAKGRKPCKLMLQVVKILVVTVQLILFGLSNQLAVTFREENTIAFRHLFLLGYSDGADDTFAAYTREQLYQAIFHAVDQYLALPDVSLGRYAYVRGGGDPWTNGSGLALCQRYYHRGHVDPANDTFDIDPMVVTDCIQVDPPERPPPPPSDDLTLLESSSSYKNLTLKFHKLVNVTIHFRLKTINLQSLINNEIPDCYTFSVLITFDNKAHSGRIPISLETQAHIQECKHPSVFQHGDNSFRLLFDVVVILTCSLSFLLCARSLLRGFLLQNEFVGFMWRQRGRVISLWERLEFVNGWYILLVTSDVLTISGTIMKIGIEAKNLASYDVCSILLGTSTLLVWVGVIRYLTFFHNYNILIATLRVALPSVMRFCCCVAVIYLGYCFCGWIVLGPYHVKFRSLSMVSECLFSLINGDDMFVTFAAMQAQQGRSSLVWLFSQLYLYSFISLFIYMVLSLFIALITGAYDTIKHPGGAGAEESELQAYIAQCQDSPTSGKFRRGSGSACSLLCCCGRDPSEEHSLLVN
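Cells: TRPML1-DL, 1X Tet inducer, ~16 h at 37 degrees C/5% CO2. Dye: ABD Ca8 no-wash + quencher, 45-90 min RT. Read: 10 s baseline, compound add, 110 s agonist phase; 54-4 EC80 (4uM final), 110 s antagonist phase.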
D2 ag: agonists of human D2 dopamine receptor (beta-arrestin); P14416; DiscoveRx PathHunter D2 beta-arrestin, luminescence, 90 min; 100% = 57 uM dopamine signal; activation, % (no concentration beside the values); 360,000 compounds, 0.084% hits; AID 624465; in the data active = activation above about 40%; inconclusive = about 15% to 40%; inactive = below about 15%; also: compound concentration not given in the record; the text of the record calls up to 30% inactive
Target sequence (P14416 whole entry, looked up): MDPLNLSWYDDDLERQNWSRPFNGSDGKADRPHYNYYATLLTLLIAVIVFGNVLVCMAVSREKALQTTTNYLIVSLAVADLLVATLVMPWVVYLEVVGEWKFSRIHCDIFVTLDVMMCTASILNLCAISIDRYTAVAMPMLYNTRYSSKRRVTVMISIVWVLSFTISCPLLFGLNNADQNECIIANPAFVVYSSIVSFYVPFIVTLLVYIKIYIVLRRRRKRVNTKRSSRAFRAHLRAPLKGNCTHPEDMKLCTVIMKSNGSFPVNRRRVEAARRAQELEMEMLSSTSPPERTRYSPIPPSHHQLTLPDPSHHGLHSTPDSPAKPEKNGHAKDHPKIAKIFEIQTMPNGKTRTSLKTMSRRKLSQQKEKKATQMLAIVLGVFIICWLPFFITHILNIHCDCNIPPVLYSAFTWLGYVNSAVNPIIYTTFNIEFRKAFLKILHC
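DiscoveRx PathHunter D2 beta-arrestin cells (2,100/well) attached overnight, then compound-stimulated 90 min at 37 C in HBSS/10 mM HEPES/0.1% Tween-20 buffer; beta-galactosidase complementation read by luminescence after 1 h at ambient temperature. Dopamine 57 uM final (EC100) as control.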
Six1-Eya2 inh: blocks human Six1 binding to Eya2; Q15475+O00167; AlphaScreen GST-Six1/His-Eya2 binding, biochemical; active compounds read low; control for the full effect not named in the record; activity change, % (no concentration beside the values); 360,000 compounds, 0.56% hits; in the data active = activity change below about -65%; inconclusive = about -30% to -65%; inactive = above about -30%; also: % is scaled to controls: 0 for no effect and ±100 for the full control effect
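Six1/Eya2 binding was read as AlphaScreen signal after compounds were pinned into GST-Six1 plus His-tagged Eya2 (5X stock 250/500 nM) in pH 8.0 Tris/NaCl/TCEP buffer, beads added, then incubated 1 h, 37 C, dark.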
D2 potentiator: human D2 receptor positive allosteric modulation. P14416. DiscoveRx D2 beta-arrestin cells, luminescence, 90 min; 100% = 57 uM dopamine signal. potentiation, % (no concentration beside the values). 360,000 compounds, 0.23% hits. AID 624464; active = potentiation of 50% or more; inconclusive = 30% to 50%; inactive = 30% or less;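 also: compound concentration not given in the record; tested on top of an EC20 dose of dopamine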
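PathHunter D2 cells, attached overnight at 37 deg C, received compound in DMSO plus dopamine at EC20 (50 nM final) for 90 min at 37 deg C. Beta-arrestin recruitment was read as luminescence after 1 h with detection reagent at ambient temperature.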
CtBP-E1A inh: blocks the CtBP interaction with E1A; AlphaScreen GST-E1A/His-CtBP binding, 1536-well; active compounds read low; control for the full effect not named in the record; activity change, % (test concentration not listed); 340,000 compounds, 0.49% hits; in the data active means activity change below about -65%; inconclusive means about -30% to -65%; inactive means above about -30%; also: % is scaled to controls: 0 for no effect and ±100 for the full control effect
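GST-E1A and His-tagged CtBP (125 nM each as 5X stock) were preincubated with pin-transferred compound for 2 h at 37 °C in the dark, then glutathione donor and nickel acceptor beads were added for 1 h before AlphaScreen reading.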
* marks the source's active call; other numbers are inactive results; ? = inconclusive; / = no result given; [ ] = remark or other dose. Random draw from the library; any-hit rate near 1.3%.

no.	compound	Six1-Eya2 inh	TRPML1 ag	PINK1 modulator	D2 potentiator	CtBP-E1A inh	D2 ag
1	CN(C(=O)COC(=O)C1COc2ccccc2O1)C1(C#N)CCCCC1 (stereo not given)	2.6	-0.1	-0.2%	-2.0	-11.2	-1.2
2	c1ccc2c(c1)nc(NCc1ccc3c(c1)OCO3)n2CCN1CCOCC1	8.2	1.7	-0.8%	-3.5	2.7	-6.4
3	COC(=O)c1[nH]c(C)c(/C(O)=C2\C(=O)C(=O)N(CCN3CCOCC3)C2c2ccco2)c1C (stereo not given)	-20.8	-0.3	0.2%	11.6	2.1	-3.9
4	O=[N+]([O-])c1ccc2nc(SCc3cn4cccnc4n3)[nH]c2c1	2.2	-0.7	6.4%	-14.0	/	-3.8
5	Cn1c(=O)c2c(nc(CN3CCCCC3)n2CCc2ccccc2)n(C)c1=O	13.3	0.4	-1.8%	-2.3	-1.6	1.9
6	CCc1ccc(NC(=O)C(=O)NNC(=O)c2ccc(OC)cc2)cc1	8.1	0.8	0.3%	-1.1	4.3	-4.6
7	CCCCNC(=O)c1sc(=S)n2c1[nH]c(=O)c1ccc(C(=O)NCCc3ccc(OC)c(OC)c3)cc12	-23.7	2.8	2.0%	-11.3	/	1.7
8	CC(=O)c1ccc(-n2nnnc2SCC(=O)NNC(=O)c2ccco2)cc1	3.6	0.6	/	2.6	12.6	-1.7
9	CC1CCCCC1NC(=O)C1CCCN1S(=O)(=O)c1cccc2nsnc12 (stereo not given)	-4.6	-0.8	2.3%	0.7	2.9	-2.3
10	COc1cc(/C=N/n2c(-c3cc(C)[nH]n3)n[nH]c2=S)ccc1O	-7.8	0.3	-0.5%	-19.3	-5.4	-1.8
11	CN(C)/N=C/C=C1\CCC/C(=C/c2cccs2)C1=O	-2.6	3.8	16.6%	-8.7	/	-2.8
12	c1ccc(CSc2ccc(-c3cccnc3)nn2)cc1	-12.7	-0.6	1.8%	-1.8	-13.3	-3.3
13	CCOC(=O)N1CCN(S(=O)(=O)N2CCCC(C(=O)NCc3ccc(F)cc3)C2)CC1 (stereo not given)	0.1	-0.5	-1.3%	16.1	9.1	1.4
14	COc1ccccc1CNC(=O)C1CCN(S(=O)(=O)c2ccc(N3CCCC3=O)cc2)CC1	-1.6	0.2	-0.3%	-0.2	-0.5	-0.7
15	COc1ccc(S(=O)(=O)N2CCCC2CNC(=O)C(=O)NCc2ccc(C)cc2)cc1 (stereo not given)	-4.1	0.9	7.1%	-1.4	1.3	0.7
16	CCc1ccc2[nH]c(=O)c(C(c3nnnn3CCOC)N3CCN(c4ccc(F)cc4)CC3)cc2c1 (stereo not given)	0.1	0.0	3.0%	-12.6	4.2	-3.7
17	COC(=O)c1[nH]c2ccccc2c1NC(=O)Oc1ccccc1	-7.4	-0.5	4.6%	8.3	-9.4	6.3
18	Cc1ccc(NC(=O)c2ccc3c(c2)OCO3)cc1S(=O)(=O)N1CCOCC1	?	0.3	-1.2%	-3.9	/	-3.0
19	CCCC(=O)N/C(N)=N/c1nc(C)c2cc(C)ccc2n1	-0.6	3.8	6.3%	-3.9	-1.8	-2.5
20	O=C(CSc1nc2ccccc2[nH]1)Nc1ccc(N2CCOCC2)cc1	-8.9	0.0	0.6%	-2.4	-0.2	-1.1
21	CCOc1ccc(-c2nc(C#N)c(N3CCN(C)CC3)o2)cc1	-23.0	-0.1	0.9%[38.3 µM]	-16.6	-25.5	-4.0
22	Cc1ccc2c(c1)COc1c3ccc(C(=O)O)cc3nn1-2	-5.4	-0.1	-1.7%	-2.9	-1.9	-1.1
23	Cc1cccc(Cn2c(C(C)O)nc3ccccc32)c1 (stereo not given)	10.0	1.1	0.1%	-8.9	-7.5	-0.2
24	CC1(C)CC(=O)C2=C(C1)N(c1ccccc1)C(N)=C(C#N)C2c1ccsc1 (stereo not given)	6.5	-0.3	0.1%	-13.7	0.9	-3.9
25	COC(=O)c1cc(S(=O)(=O)N2CCC(c3cc(OC)ccc3OC)C2)c[nH]1 (stereo not given)	0.3	-0.8	0.0%	-4.8	-0.2	3.2
26	CC(=O)c1ccc(O)c(CSC2=NCCS2)c1	0.5	0.0	0.1%	-4.6	-2.8	-7.5
27	CC(=O)OC1OCCOC1NC(=S)Nc1cccc(C(F)(F)F)c1 (stereo not given)	1.9	-0.3	2.9%	-8.1	5.6	0.1
28	COCCNc1nc(Nc2ccccc2Cl)c2sccc2n1	3.3	-1.0	5.1%	-6.1	1.0	-6.0
29	O=C(CN1C(=O)C2CCCCC2C1=O)OCc1nnc(-c2ccccc2)o1 (stereo not given)	5.4	0.2	3.6%	-2.2	9.8	-0.2
30	CCOc1ccc(S(=O)(=O)N2CCCC(C(=O)Nc3cc(C)cc(C)c3)C2)cc1 (stereo not given)	-1.7	3.4	6.1%	0.1	0.0	-3.5
31	CN(Cc1ccco1)C(=O)c1c[nH]c2ccc(S(=O)(=O)Nc3ccc4c(c3)OCCO4)cc2c1=O	-10.9	0.6	0.6%	-18.9	-3.2	4.2
32	CCC(=O)N(Cc1cc2ccccc2[nH]c1=O)C(C)C	-2.1	-0.2	0.8%	7.9	-0.2	-1.0
33	CC1(C)CC(NC(=O)c2cc(S(=O)(=O)N3CCOCC3)ccc2Cl)CC(C)(C)N1	6.5	0.1	-1.8%	-1.6	-3.6	-7.0
34	Cc1cc(O)cc(=O)n1Cc1ccco1	2.3	4.8	-0.8%	-3.2	1.8	-1.8
35	CSc1ccc(S(=O)(=O)N2CCC(C(=O)NCc3ccco3)CC2)cc1	2.2	0.7	0.6%	-0.8	-0.3	-3.6
36	O=C(Nc1nc2cc(Cl)ccc2s1)C1CCCN(S(=O)(=O)c2cccc3cccnc23)C1 (stereo not given)	-11.5	0.4	0.8%	-2.0	-6.4	3.0
37	COc1ccc(CN(C)CC(=O)Nc2ccccc2C(=O)NC2CC2)cc1	0.8	-0.4	1.0%	-2.9	9.0	0.7
38	CC(C)n1nccc1NS(=O)(=O)c1ccccc1	6.1	0.0	-0.3%	-4.0	-2.4	-6.0
39	CC1(c2nc3ccccc3[nH]2)CCC(=O)N1Cc1ccc(F)cc1 (stereo not given)	-6.3	-0.3	1.0%	-4.7	2.5	-5.2
40	O=C(CSc1n[nH]c(-c2cccs2)n1)N1CCCCC1	6.6	-0.3	2.2%	7.9	8.8	4.2
41	CC(C)CCNc1cc(=O)n(C)c(=O)n1C	1.4	-0.4	1.2%	-5.0	2.2	1.3
42	COc1ccc(-c2csc3nc(-c4ccccc4F)oc(=O)c23)cc1OC	-12.1	1.9	24.6%[38.3 µM]	-7.6	7.5	-2.0
43	CO/N=C/c1ccc(Sc2ccccc2N)c([N+](=O)[O-])c1	?	-1.1	-0.2%	-10.6	-21.7	-3.9
44	COC(=O)[C@@]1(Cc2ccc(F)cc2)[C@H]2c3cc(C(=O)N4CCCC4)n(CCc4ccc(OC)c(Br)c4)c3C[C@H]2CN1C(=O)c1ccccc1	-12.4	0.6	-0.7%	/	-11.5	/
45	Cc1cccc(NC(=O)CSc2ncnc3nc[nH]c23)c1	-5.5	-0.8	1.2%	-2.7	-6.8	-7.6
46	N/C(=N\OC(=O)CCC1CCCCC1)c1ccccn1	0.2	0.0	2.7%	4.4	6.1	-2.9
47	Cc1oc(-c2ccccc2)[n+]([O-])c1C	4.9	-0.3	0.1%	-4.3	14.0	-5.1
48	CSCCC(N=C1NS(=O)(=O)c2ccccc21)C(=O)NCc1ccccc1F (stereo not given)	-0.9	-0.2	0.9%	-4.7	-2.0	0.4
49	Nc1nc(-c2cccs2)c(NC(=O)c2ccccc2)s1	-5.8	0.0	/	-6.4	8.3	-4.1
50	O=C(NCCC(=O)N1CCNC1=O)OCc1ccccc1	2.7	1.2	1.7%[38.3 µM]	-6.9	4.1	-1.3
51	CSCCC1NC(=O)C(C(C)=NNC(N)=O)=C1O (stereo not given)	?	0.2	1.2%	-7.2	2.0	-0.6
52	CC(C)(C)c1ccc(CC(=O)N2CCC2(C)C(=O)NCc2cccc3ccccc23)cc1 (stereo not given)	-8.1	-0.4	-0.5%	-8.6	-6.2	-4.5
53	CCCCNC(=O)N(CC)c1c(N)n(Cc2ccccc2)c(=O)[nH]c1=O	19.7	-0.2	2.3%	-8.2	5.6	-3.0
54	Cc1ccc(C)c(N2CCN(C(=O)Cc3ccc(-n4c(=O)[nH]c5ccsc5c4=O)cc3)CC2)c1	-13.7	0.8	-3.4%	5.2	1.0	2.3
55	COc1ccc(S(N)(=O)=O)cc1C(=O)OCC(=O)Nc1ncc(Cl)c(C)c1Cl	-4.5	-0.8	-0.9%	2.8	-0.5	3.2
56	CCOC(=O)c1c(NC(=O)CSc2nnc(Cc3csc(N)n3)n2C)sc(C)c1C	-26.9	0.4	-2.0%[38.3 µM]	-13.3	4.5	1.1
57	O=C(Nc1ccccc1)C1CCN(C(=O)c2ccco2)CC1	-2.2	0.3	0.5%	-3.2	-1.5	-0.2
58	Cc1cc(C)n2nc(C(=O)N/N=C/c3ccccc3Cl)nc2n1	-13.8	0.1	0.8%	-3.3	-6.0	-3.3
59	Cc1cc(Cn2nnc3ccccc32)c(O)c(C(C)(C)C)c1	7.8	0.5	4.5%	3.6	/	3.5
60	CN(C)C(=O)c1ccccc1Sc1ccc(Cl)cc1Cl	1.6	1.1	0.9%	-12.6	2.2	-0.4

More entries follow.
no.	compound	Six1-Eya2 inh	TRPML1 ag	PINK1 modulator	D2 potentiator	CtBP-E1A inh	D2 ag
61	C=CCn1c(SCC(=O)NCC)nnc1-c1cc2c(s1)CCC(CC)C2 (stereo not given)	-12.2	-0.6	1.1%	7.2	0.0	5.1
62	COC(=O)c1ccc(CO/N=C(\NC(C)=O)c2nonc2NC(C)=O)cc1	9.2	-0.1	0.3%	-11.0	10.9	-5.0
63	Cc1nn(Cc2ccccc2Cl)c(C)c1NC(=O)c1ccn(C)n1	12.3	0.1	4.9%	0.5	-2.2	-1.7
64	Cc1ccc(S(=O)(=O)c2cc(C#N)c(=O)[nH]c2N)cc1	1.5	0.9	0.1%	-5.0	-1.3	-2.4
65	O=C(NC1CCCCCC1)C1CCC(=O)N(Cc2ccccc2F)C1 (stereo not given)	16.5	0.5	-0.2%	-11.0	-21.7	1.6
66	COc1ccc(C2NN=C(c3ccc(C)cc3)S2)cc1 (stereo not given)	-1.1	-0.5	7.0%	-14.8	/	-2.4
67	CCOC(=O)N1CCN(S(=O)(=O)N2CCCC(C(=O)NCCc3ccccc3)C2)CC1 (stereo not given)	1.6	-0.2	-0.7%	-16.6	7.0	1.0
68	COc1ccc(OC)c(C2=C[N+](=O)C(C)(C)C(C)(C)N2[O-])c1	7.0	-0.4	-2.2%	-5.4	-0.1	0.1
69	O=C1NC(=O)c2cc(NC(=O)C3COc4ccccc4O3)ccc21 (stereo not given)	-11.8	-1.3	3.4%	-8.8	1.2	-3.8
70	CC1SC(c2ccc(Cl)cc2)NC1=O (stereo not given)	6.0	-1.5	0.4%	15.0	-1.7	-1.0
71	COC(=O)[C@H](C)N(Cc1ccc(Cl)c(Cl)c1)S(=O)(=O)CCN1CCN(c2ccccc2)CC1	3.8	0.4	1.1%	-4.8	2.4	-0.2

Compound activity as filed in PubChem BioAssay.
